FGF22 binding: shifts melting point of recombinant human FGF22; 340,000 compounds, 1.5% hits; calls only at 9.99 µM; Q9HCT0; AID 651658; recombinant FGF22 thermal shift, SYPRO orange fluorescence; percent of sucrose octasulfate shift, DMSO zero;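 active = melting point raised past a set limit in the mean and every replicate; three in four hits are not shown here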
Target sequence (Q9HCT0 whole entry, looked up): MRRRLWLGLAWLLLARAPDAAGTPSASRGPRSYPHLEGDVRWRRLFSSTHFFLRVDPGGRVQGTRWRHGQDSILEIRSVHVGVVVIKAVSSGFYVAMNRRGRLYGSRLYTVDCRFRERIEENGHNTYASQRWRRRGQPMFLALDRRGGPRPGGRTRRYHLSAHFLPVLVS
rRNA inh HTS: inhibits bacterial ribosomal RNA function over humanized ribosomes; E. coli WT GFP vs humanized-ribosome RFP mutants, fluorescence, 24 h; active compounds read low; DMSO median 0, no signal -100; GFP signal change (wild-type ribosome), % (no concentration beside the values); 350,000 compounds, 1.6% hits;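 active = significant combined selectivity score with lowered wild-type GFP, culture density cut under 30%, mutant RFP and density less affected; inactive = any of these conditions unmet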; also: one replicate is shown; some compounds called inactive have numbers as strong as hits
MLL AF4-AF9 inh: inhibitors of human MLL-AF4/AF9 interaction; AlphaScreen, biotin-AF4 peptide binding to FLAG-AF9; inhibition, % at 10 µM; 350,000 compounds, 0.47% hits; AID 651704;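 active = every replicate reaching a set inhibition limit, whatever the replicate mean, cut at about 25% in these data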;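 also: 0% = plate neutral control median and 100% = total signal loss; the record names both 10 and 1 µM as test concentration; the first replicate is given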
Target sequence (P42568 whole entry, looked up): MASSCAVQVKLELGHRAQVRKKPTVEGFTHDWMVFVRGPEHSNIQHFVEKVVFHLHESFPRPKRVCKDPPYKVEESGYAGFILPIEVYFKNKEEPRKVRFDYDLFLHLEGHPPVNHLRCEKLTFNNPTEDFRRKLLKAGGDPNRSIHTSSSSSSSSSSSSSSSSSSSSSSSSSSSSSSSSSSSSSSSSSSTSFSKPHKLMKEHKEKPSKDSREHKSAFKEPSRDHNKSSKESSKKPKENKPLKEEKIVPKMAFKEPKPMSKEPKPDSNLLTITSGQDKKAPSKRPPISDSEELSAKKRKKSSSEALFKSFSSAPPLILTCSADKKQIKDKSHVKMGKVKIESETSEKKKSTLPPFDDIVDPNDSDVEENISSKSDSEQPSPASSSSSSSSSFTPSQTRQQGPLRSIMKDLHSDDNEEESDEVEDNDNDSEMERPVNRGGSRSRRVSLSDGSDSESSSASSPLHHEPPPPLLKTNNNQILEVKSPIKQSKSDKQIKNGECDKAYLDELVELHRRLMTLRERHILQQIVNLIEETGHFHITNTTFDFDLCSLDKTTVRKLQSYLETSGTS
rRNA inh HTS OD600: further read-out of rRNA inh HTS, marked with its call; OD600 change, %; measured here: OD600 growth;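 optical density of the mix in the first replicate; 0 = DMSO median and -100 = no signal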
rRNA inh HTS RFP: recorded beside rRNA inh HTS, whose call it bears; RFP signal change, %; measured here: RFP humanized mutant strains;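 first replicate; 0 = DMSO median and -100 = no signal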
* marks the source's active call; other numbers are inactive results; i = inactive; x = no result given; + = active, no number; & = joins results of further samples; ! = not confirmed by another sample. These rows are one share of the data; the hit share may differ from the screen's.

Values in the order – FGF22 binding	rRNA inh HTS	rRNA inh HTS OD600	rRNA inh HTS RFP	MLL AF4-AF9 inh
- CC(C)(C(=O)N1CCC1(C)C(=O)Nc1ccccc1Br)c1ccccc1 (stereo not given)
→ i	-6.1	-20.2	-6.5	-3.7
- O=C(C[C@H]1CC[C@H](NC(=O)c2ccccn2)[C@@H](CO)O1)NCc1cc(F)cc(F)c1
→ i	-0.5	1.7	-0.2	0.1
- COc1ccc(NC(=O)N(C)C[C@H]2Oc3ccc(NS(=O)(=O)c4ccccc4)cc3CC(=O)N([C@H](C)CO)C[C@@H]2C)cc1
→ i	0.8	-0.1	-1.4	0.3
- C[C@@H]1CN([C@@H](C)CO)C(=O)c2cc(NS(=O)(=O)c3cn(C)cn3)ccc2O[C@H]1CN(C)S(=O)(=O)c1ccccc1
→ i	-0.8	-1.9	-4.9	-8.4
- COC(=O)C[C@H]1CC[C@@H]2[C@@H](COc3ccc(NC(=O)C4CC4)cc3C(=O)N2C)O1
→ i	-2.1	-3.5	0.6	-0.3
- O=C(c1cccnc1)N1C[C@H]2[C@@H](c3ccccc31)[C@H](CO)N2C(=O)Nc1ccccc1F
→ i	2.9	0.9	-1.7	-1.4
- CN(C)CCCNC(=O)[C@@H]1[C@@H](CO)[C@@H]2Cn3c(cccc3=O)[C@H]1N2CC1CC1
→ i	2.1	6.3	0.4	-2.8
- CC(=O)c1cccc(-c2cnc3c(NC=O)cc(-c4ccc(F)cc4)cn23)c1
→ i	4.8	-4.0	3.8	-5.9
- CNC(=O)C[C@@H]1CC[C@@H]2[C@H](COc3ccc(NC(=O)c4cccc(F)c4)cc3C(=O)N2C)O1
→ +!	-5.1&1.6	-2.0&-7.1	-2.6&-2.9	-2.3&-0.8
- COc1ccc(C(c2nnnn2-c2ccc3c(c2)OCCO3)N2CCN(C/C=C/c3ccccc3)CC2)cc1 (stereo not given)
→ i	-12.7	-38.8	29.2	11.7
- Cc1c(C(=O)N2CCN(C(=O)c3ccccc3)CC2)oc2ccc(F)cc12
→ i	-3.6	-8.2	2.5	-2.3
- CC(=O)N(C)C[C@@H]1Oc2ncc(C#CC3(O)CCCC3)cc2C(=O)N([C@@H](C)CO)C[C@@H]1C
→ i	0.9	11.0	-5.4	-3.3
- COc1ccc(S(=O)(=O)N2CCOCC2)cc1NC(=O)Cc1coc2cc(C)ccc12
→ i	-10.6	-18.2	6.2	1.3
- CC(C)NC(=O)C1(C)CCN1Cc1ccc(C(F)(F)F)cc1 (stereo not given)
→ i	14.0	13.1	-0.5	-3.6
- CCNC(=O)C[C@@H]1CC[C@H]2[C@@H](COC[C@H](O)CN2C(=O)CC)O1
→ i	-1.1	7.0	11.1	-1.2
- Cc1noc(C)c1S(=O)(=O)Nc1ccc2c(c1)C(=O)N([C@@H](C)CO)C[C@@H](C)[C@@H](CN(C)Cc1ccccc1)OCCCC[C@H](C)O2
→ i	-5.2	-6.1	-2.1	3.9
- CO[C@H]1CN(C)C(=O)c2cc(NC(=O)C3CC3)ccc2OC[C@@H](C)N(Cc2cc(F)ccc2F)C[C@H]1C
→ i	-3.3	-11.0	-1.3	0.6
- CCC1(O)C(=O)OCc2c1cc1n(c2=O)Cc2cc3c(N)cccc3nc2-1 (stereo not given)
→ i	3.3	4.5	-0.6	-0.4
- C[C@@H]1CN([C@H](C)CO)S(=O)(=O)c2ccc(C#C[C@@H](C)O)cc2O[C@H]1CN(C)C(=O)Cc1ccccn1
→ i	2.7	7.9	-0.4	-2.3
- CCCCCCCCN1C(=O)[C@H](CC(=O)NCC2CCCCC2)C[C@@]2(C(=O)OCC)CCCC=C12
→ i	10.3	15.4	-2.8	-3.7
- COc1cccc(S(=O)(=O)N2CCCCN3[C@H](C2)[C@H](c2ccc(-c4ccccc4)cc2)[C@@H]3CO)c1
→ i	2.5	12.9	2.1	-2.8
- C[C@@H]1CN([C@@H](C)CO)C(=O)c2cc(C#CC3(O)CCCC3)cnc2O[C@@H]1CN(C)C(=O)Cc1ccccc1
→ i	4.3	11.1	-2.6	-3.4
- COCCCN1C(=O)C(CC(=O)NCc2cccs2)CC(C(=O)N2CCOCC2)=C1C (stereo not given)
→ i	9.9	11.4	-2.1	0.4
- C[C@H](CO)N1C[C@H](C)[C@@H](CN(C)Cc2ccccc2)Oc2ccc(N(C)C)cc2CC1=O
→ i	1.3	4.2	-1.4	16.7
- COc1ccc2ncccc2c1Cc1c(OC)ccc2ncccc12
→ i	8.8	10.5	3.6	3.1
- O=C(C[C@@H]1C[C@@H]2c3cc(NC(=O)CC4CC4)ccc3O[C@@H]2[C@@H](CO)O1)NCCc1ccccc1
→ i	-3.2	-2.5	-1.1	6.0
- COC(=O)c1cc(=O)nc(NNC(C)=O)s1
→ i	1.4	-1.8	-0.7	-2.3
- C[C@@H]1CN([C@@H](C)CO)C(=O)c2cc(NS(=O)(=O)c3cn(C)cn3)ccc2O[C@@H]1CN(C)Cc1ccccc1
→ i	3.3	17.3	-2.1	-0.8
- CO[C@@H](CN(C)C(=O)Nc1ccc(F)cc1)[C@H](C)CN(Cc1ccccc1Cl)[C@@H](C)CO
→ i	2.6	-1.3	0.2	2.2
- C[C@@H]1CN([C@H](C)CO)C(=O)c2cccc(NC(=O)c3nc4ccccc4s3)c2O[C@@H]1CN(C)S(=O)(=O)c1cn(C)cn1
→ i	-3.5	-9.0	0.4	-2.0
- O=C(O)c1cc(N2C(=O)C=CC2=O)cc(N2C(=O)C=CC2=O)c1
→ i	7.2	11.8	5.0	-11.9
- O=C(NCc1ccccc1)c1cc(C2COCCN2S(=O)(=O)c2ccccc2)on1 (stereo not given)
→ i	5.2	11.2	2.5	-1.6
- CN1CCN(C(=O)C[C@H]2C[C@@H]3c4cc(NC(=O)Nc5ccc(F)cc5)ccc4O[C@@H]3[C@H](CO)O2)CC1
→ i	0.6	1.3	-2.8	4.5
- COc1ccccc1CCC(=O)Nc1ccc2c(c1)c(=O)n(C)n2Cc1cccc(C(F)(F)F)c1
→ i	7.2	-1.7	3.2	-0.8
- COc1ccc(S(=O)(=O)N(C)CC(=O)NCCCN2CCOCC2)cc1C
→ i	-4.4	-5.7	1.4	-16.2
- COc1ccc(S(=O)(=O)Nc2cccc3c2O[C@@H](CN(C)Cc2ccc4c(c2)OCO4)[C@@H](C)CN([C@@H](C)CO)C3=O)cc1
→ i	-1.7	-1.8	0.3	-0.4
- C[C@H]1CN([C@@H](C)CO)C(=O)c2cc(C#CC3CC3)cnc2O[C@H]1CN(C)C(=O)c1ccccc1
→ i	-0.4	-1.9	-0.5	-2.8
- Cc1noc(C)c1NC(=O)N(C)C[C@@H]1Oc2c(NC(=O)Nc3cccc4ccccc34)cccc2C(=O)N([C@H](C)CO)C[C@H]1C
→ i	1.6	3.1	-1.1	1.1
- O=C(O)C[C@@H]1CC[C@@H](NC(=O)Nc2ccccc2)[C@H](CO)O1
→ i	1.5	0.8	-0.8	-2.5
- C[C@@H]1CN([C@H](C)CO)C(=O)c2cc(NC(=O)CCN3CCOCC3)ccc2O[C@@H]1CN(C)S(C)(=O)=O
→ i	2.2	-7.7	-4.3	0.4
- COc1ccc(NC(=O)Nc2ccc3c(c2)C(=O)N([C@H](C)CO)C[C@@H](C)[C@H](CN(C)S(=O)(=O)c2cccs2)O3)cc1
→ i	-2.3	-4.3	1.7	-1.9
- Nc1nc(Cl)c2ncn(C3OC(CO)C(O)C3O)c2n1 (stereo not given)
→ x	5.5	6.0	2.1	-0.6
- COc1ccc(NC(=O)Nc2ccc3c(c2)C(=O)N([C@H](C)CO)C[C@H](C)[C@H](CN(C)C(=O)Nc2ccc(F)cc2)O3)cc1
→ i	-2.7	7.9	-2.7	4.2
- Cc1ccc(S(=O)(=O)Nc2cccc3c2O[C@H](CN(C)CC2CCCCC2)[C@H](C)CN([C@H](C)CO)C3=O)cc1
→ i	-1.6	-4.3	-0.1	1.2
- Cc1noc(C)c1NC(=O)Nc1cccc2c1O[C@H](CN(C)CC1CC1)[C@@H](C)CN([C@@H](C)CO)C2=O
→ i	1.9	0.6	-1.1	-2.4
- Cc1ccccc1-c1ccc([C@@H]2[C@@H](CO)N3CCCCN(CC4CC4)C[C@H]23)cc1
→ i	2.8	-11.7	-2.7	9.3
- COc1ccc(-c2ccc3c(c2)[C@@H]2C[C@H](N(C)C(=O)C(C)(C)C)[C@H]([C@H](C)O)C(=O)N2CC3)cc1
→ i	4.7	-12.3	1.5	1.3
- C[C@@H]1CN([C@H](C)CO)C(=O)c2cc(NS(=O)(=O)c3ccc(F)cc3)ccc2O[C@@H]1CN(C)S(=O)(=O)c1ccc(Cl)cc1
→ i	-2.3	-15.7	0.4	0.5
- CCNC(=O)C[C@@H]1CC[C@H]2[C@H](COc3ccc(NC(=O)Nc4cccc(Cl)c4)cc3C(=O)N2C)O1
→ i	-3.9	-13.6	6.1	3.1
- C[C@H](CO)N1C[C@H](C)[C@H](CN(C)C(=O)CN(C)C)Oc2ncc(C#Cc3ccncc3)cc2C1=O
→ i	8.2	14.5	0.1	-6.8
- O=C1CCN(Cc2ccccc2)C(=S)N1
→ i	6.9	8.2	-0.2	-5.6
- COc1cccc(NC(=O)Nc2ccc3c(c2)C(=O)N(C)C[C@H](OC)[C@H](C)CN[C@H](C)CO3)c1
→ i	-0.5	4.4	1.0	7.1
- C[C@@H]1CN([C@@H](C)CO)C(=O)c2cc(NC(=O)Nc3ccc(F)cc3)ccc2O[C@@H]1CN(C)S(=O)(=O)c1cn(C)cn1
→ i	-0.5	1.4	1.2	-1.6
- C[C@@H]1CCCCO[C@H](CN(C)Cc2ccccc2)[C@H](C)CN([C@@H](C)CO)C(=O)c2cc(NC(=O)C3CCCCC3)ccc2O1
→ i	0.9	-7.1	1.1	3.3
- COc1ccccc1C(=O)N1C[C@H]2[C@@H](c3ccccc31)[C@H](CO)N2C(=O)C1CCCCC1
→ +	0.8	-4.8	-0.1	-2.7
- CCNC(=O)C[C@@H]1C=C[C@H](NS(=O)(=O)c2ccc(F)cc2)[C@@H](CO)O1
→ i	1.5	8.2	-2.0	-0.1
- C[C@H](CO)N1C[C@H](C)[C@H](CN(C)S(C)(=O)=O)Oc2ccc(NC(=O)CCCN(C)C)cc2CC1=O
→ i	3.6	0.5	-0.1	-0.8
- COCCNC(=O)C[C@@H]1CC[C@@H]2[C@H](COC[C@H](O)CN2C(=O)Nc2ccccc2OC)O1
→ i	-4.6	-2.6	-1.6	-5.1
- O=C(C[C@@H]1CC[C@H](NC(=O)c2cccc(F)c2)[C@@H](CO)O1)NCc1ccccc1
→ i	1.2	2.1	0.0	-2.4
- CO[C@@H]1CN(C)C(=O)c2ccc(NS(C)(=O)=O)cc2OC[C@H](C)N(C(=O)CC2CC2)C[C@@H]1C
→ i	0.9	3.5	-1.6	-3.1

Structural class, those above containing a thiophene ring, fused or not
Values in the order – FGF22 binding	rRNA inh HTS	rRNA inh HTS OD600	rRNA inh HTS RFP	MLL AF4-AF9 inh
- COCCCN1C(=O)C(CC(=O)NCc2cccs2)CC(C(=O)N2CCOCC2)=C1C (stereo not given)
→ i	9.9	11.4	-2.1	0.4
- COc1ccc(NC(=O)Nc2ccc3c(c2)C(=O)N([C@H](C)CO)C[C@@H](C)[C@H](CN(C)S(=O)(=O)c2cccs2)O3)cc1
→ i	-2.3	-4.3	1.7	-1.9

Later entries.
Values in the order – FGF22 binding	rRNA inh HTS	rRNA inh HTS OD600	rRNA inh HTS RFP	MLL AF4-AF9 inh
- COc1ccc(CNC(=O)CCNC(=O)c2ccc(C(C)(C)C)cc2)cc1OC
→ i	11.5	8.0	1.1	-1.4
- C/C=C/c1ccc2c(c1)O[C@H](CN(C)C)[C@@H](C)CN([C@H](C)CO)S2(=O)=O
→ i	5.8	4.6	3.5	0.4
- Cn1c(OCC2CCCO2)nc2cc(-c3ccccc3)sc2c1=O (stereo not given)
→ i	-16.3	-28.9	-5.7	-1.7
- COC(=O)c1ccc(CC2(C)C(=O)Nc3ccc(-c4cccc(C(F)(F)F)c4)cc32)o1 (stereo not given)
→ i	0.0	6.7	1.8	13.4
- Cc1ccc(S(=O)(=O)N[C@@H]2C=C[C@@H](CC(=O)N3CCc4ccccc4C3)O[C@H]2CO)cc1
→ i	-3.4	-5.2	-0.9	-4.1
- CC1=NN(C(=O)c2ccncc2)C(=O)C1N=Nc1ccc2ccccc2c1 (stereo not given)
→ i	-13.5	3.2	11.3	-58.4
- COCCN(C(=O)c1ccc2c(c1)S(=O)(=O)N=C1CCCCCN12)c1c(N)n(CC(C)C)c(=O)[nH]c1=O
→ i	9.7	15.1	-2.5	1.8
- COc1cc(NC(C)CCCNC(C)C)c2ncccc2c1OC (stereo not given)
→ i	31.2	12.3	7.2	3.2
- C[C@H](CO)N1C[C@H](C)[C@@H](CN(C)C(=O)Nc2ccc3c(c2)OCO3)OCCCC[C@H](C)Oc2ccc(NC(=O)Nc3ccc(F)cc3)cc2C1=O
→ i	1.1	1.6	-1.1	-0.8
- COCC#Cc1ccc2c(c1)O[C@@H](CN(C)C(=O)NC(C)C)[C@@H](C)CN([C@H](C)CO)S2(=O)=O
→ i	-2.4	7.0	-0.6	1.7
- COC1C=CC=C(C)C(=O)NC2=CC(=O)C(N)=C(CC(C)CC(OC)C(O)C(C)C=C(C)C1OC(N)=O)C2=O (stereo not given)
→ i	-0.6	12.1	-0.6	8.6

From PubChem BioAssay
